# Screening results deposited in PubChem by several laboratories.
# Mtb growth = M. tuberculosis H37Rv growth inhibitors, H37Rv strain (AID 1626) | M. tuberculosis H37Rv growth inhibition; higher % means a stronger effect | one-dose inhibition, % at 10 µM; IC50 in µM for titrated hits | hit rate 0.95% among 220,000;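 active = confirmed in a dose series; inconclusive = inhibition above 80% but not taken into the dose series; inactive = below 80% or under 30% at every dose of the series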;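 note: bacteria incubated seven days before Alamar blue readout; 0% = bacteria only wells and 100% = bacteria with antibiotic wells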
# Mtb betalactam = beta-lactam sensitization of Mtb H37Rv; M. tuberculosis H37Rv growth with meropenem, percent inhibition; hits of this screen are not shown here; AID 434955; inhibition, % at 25 µM; hit rate 0.27% among 330,000;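 active = about 74% or more and at least 40 points above the plate without the antibiotic, then above 30% in a dose series; inconclusive = first-round hits that could not be retested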;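 note: growth measured after seven days incubation then overnight dye step; 0% = bacteria only wells and 100% = bacteria with antibiotic; twin plates without the antibiotic show which effects depend on it; some results filed as inactive read as strong as hits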
# YopH inh = YopH (Yersinia) phosphatase inhibition; inhibition, %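 (about 10 µM by stock and volumes)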; fluorescence Ex485/Em525; AID 898; hit rate 0.16% among 140,000;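 active = inhibition of 50% or more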;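 note: controls were vehicle for no effect and minimum signal wells for full effect; inactives centre near -20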
# Arbovirus anti = blocks arbovirus infection; arbovirus infection cell-based antiviral screen; inhibition, % at 10 µM; hit rate 0.37% among 200,000; AID 1251;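 active = inhibition from about 30%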;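 note: bluetongue infection of BSR cells; cell survival read as ATP light after 72 h; 0% = infected wells without compound and 100% = uninfected wells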
# RecA intein inh = Mtb RecA intein splicing inhibition | P9WHJ3 | cell-free RecA intein splicing, fluorescence | inhibition, %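 (about 9 µM by stock and volumes)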 | hit rate 0.75% among 290,000; in the data active = inhibition above about 30%; inconclusive = no clear call, values can overlap the other calls;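 note: 0% = vehicle wells and 100% = reference inhibitor control wells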
# Target sequence (P9WHJ3 whole entry, looked up): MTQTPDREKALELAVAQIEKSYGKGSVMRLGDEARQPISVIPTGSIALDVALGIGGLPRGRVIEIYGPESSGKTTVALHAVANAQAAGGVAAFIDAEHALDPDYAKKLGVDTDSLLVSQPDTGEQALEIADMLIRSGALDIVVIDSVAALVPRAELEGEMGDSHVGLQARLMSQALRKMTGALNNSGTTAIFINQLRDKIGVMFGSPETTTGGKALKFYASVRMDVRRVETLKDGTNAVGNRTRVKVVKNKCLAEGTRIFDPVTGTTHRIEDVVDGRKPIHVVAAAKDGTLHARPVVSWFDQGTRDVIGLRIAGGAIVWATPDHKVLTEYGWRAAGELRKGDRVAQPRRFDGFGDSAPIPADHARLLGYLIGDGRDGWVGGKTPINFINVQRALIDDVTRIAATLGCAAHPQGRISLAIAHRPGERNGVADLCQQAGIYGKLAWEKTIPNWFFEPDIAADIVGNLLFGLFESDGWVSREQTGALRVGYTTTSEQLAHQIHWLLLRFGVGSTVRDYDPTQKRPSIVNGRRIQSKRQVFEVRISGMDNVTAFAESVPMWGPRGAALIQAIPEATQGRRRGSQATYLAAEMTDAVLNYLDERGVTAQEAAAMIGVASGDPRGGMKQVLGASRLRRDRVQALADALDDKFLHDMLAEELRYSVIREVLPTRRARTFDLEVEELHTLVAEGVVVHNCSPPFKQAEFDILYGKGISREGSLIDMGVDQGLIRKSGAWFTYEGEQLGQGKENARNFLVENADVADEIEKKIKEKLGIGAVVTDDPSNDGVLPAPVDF
# Arbovirus anti repeat = further read-out of Arbovirus anti, marked with its call; inhibition, %; measured here: 10K subset replicate screen; many hits read low in the repeat;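 first of two repeat runs on a subset; 0% = infected and 100% = uninfected wells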
# * marks the source's active call; other numbers are inactive results; ? = inconclusive; nt = not tested or not shown. Only part of the results is shown; count on the stated rates, not on these rows.
# The opening 2 records as a preview:
SMILES,Mtb growth,Mtb betalactam,YopH inh,Arbovirus anti,RecA intein inh,others
COc1ccc(CNC(=O)C2CCN(C(=O)c3ccco3)CC2)cc1,nt,0,nt,nt,-0.2,
Cc1oc(C(C)(C)C)c(CN2CCCC2)c1C(=O)O,6%,-6,-29,6,-1.2,

# The whole of this part, previewed entries included:
SMILES,Mtb growth,Mtb betalactam,YopH inh,Arbovirus anti,RecA intein inh,others
COc1ccc(CNC(=O)C2CCN(C(=O)c3ccco3)CC2)cc1,nt,0,nt,nt,-0.2,
Cc1oc(C(C)(C)C)c(CN2CCCC2)c1C(=O)O,6%,-6,-29,6,-1.2,
O=C(NC(=S)Nc1cc([N+](=O)[O-])ccc1Cl)c1ccccc1,3%,-4,-11,-9,0.5,
CCOC(=O)C1CSC(CC(=O)Nc2ccc(OCC)cc2)C(=O)N1 (stereo unspecified),2%,-6,-20,-4,nt,
O=C1NC(=S)N/C1=C\c1ccccc1OCc1ccc(C(=O)O)cc1,-16%,-7,nt,nt,-2.1,
CN1CCN(C(=O)CCNC(=O)Cn2ccc3ccccc3c2=O)CC1,-2%,-5,-4,-2,2.5,
O=C1C=C(NCc2ccc3c(c2)OCO3)CC(c2ccccc2)C1 (stereo unspecified),-3%,0,nt,-19,0.8,
Cc1nc2c3ccccc3n(CC#N)c(=O)n2n1,-9%,-5,-33,-2,0.2,Arbovirus anti repeat=-1
Cc1ccc(NC(=O)CNc2ccc(Cl)cc2F)cc1,3%,6,-31,3,1.1,
CCc1ccc(N(C(=O)C(F)(F)F)C(C(=O)NC2CCCCC2)c2ccncc2)cc1 (stereo unspecified),-11%,13,-53,8,2.0,
O=C(O)c1ccc(N/N=C/c2cccc3cccnc23)cc1,nt,13,nt,nt,-4.3,
Cc1ccnc(NC(=O)CCC(=O)N(CC(=O)NC(C)(C)C)c2ccc(F)c(Cl)c2)c1,-3%,-6,nt,-4,3.7,
Clc1ccc2nc(-c3ccccn3)c(Nc3ccc4c(c3)OCO4)n2c1,2.6µM*,98,-10,-26,-0.4,
CCn1c(C)nc2cc(C(=O)NNC(=S)NC(=O)c3ccc(OC)cc3)ccc21,48%,48,nt,2,nt,
Cc1cccc(N2C(=O)CC(Cn3nc(C)cc3C)C2=O)c1 (stereo unspecified),0%,4,nt,nt,-0.3,
COCCCNC(=O)C(=O)C1C(=O)Nc2ccccc21 (stereo unspecified),-2%,-2,nt,7,-1.2,
C/C(NC(=O)c1cccs1)=C1\C(=O)C[C@@H]2[C@H]1C2(C)C,3%,19,-44,2,3.2,
CC(=O)Nc1ccc(NC(=O)C(C)OC(=O)/C=C/c2cnc3ccccc3n2)cc1 (stereo unspecified),-9%,-6,nt,nt,-1.2,
COc1ccc(OCC(=O)NC(CC(=O)O)c2ccc(OC)c(OC)c2)cc1 (stereo unspecified),-1%,-8,nt,3,-2.4,
COc1ccc(Br)cc1C(=O)Nc1ccc(N2CCN(S(C)(=O)=O)CC2)cc1,7%,-2,-4,-1,-2.3,
CCn1c(SCC(=O)Nc2ccc(OC)cc2)nnc1-c1ccco1,-8%,-11,1,1,-0.1,
NCCc1nc(-c2ccccc2)cs1,8%,1,nt,1,-0.2,
CCn1nnnc1SCC(=O)c1ccc(C)cc1,-12%,12,-2,-1,1.4,
COc1ccc(C(=O)Cn2cnc3ccccc3c2=O)cc1OC,nt,-5,nt,nt,-2.6,
Cc1cc(=O)[nH]c(N/N=C/c2ccc(Br)s2)n1,5%,85,-18,-10,-3.5,
CCN(C1CCCCC1)S(=O)(=O)CCNC(=O)c1ccccc1,nt,-8,nt,nt,-3.2,
CCCCCCNS(=O)(=O)c1nc2nc(C)cc(C)n2n1,-7%,0,-17,3,-1.7,Arbovirus anti repeat=2
COc1ccc(C(O)P(=O)(OC2CCCCC2)c2ccc(N(C)C)cc2)cc1OC (stereo unspecified),-4%,5,-33,7,-3.0,
CCC(C)n1c(C)nc2c(c1=O)c1nc3ccccc3nc1n2CCC1=CCCCC1 (stereo unspecified),3%,4,-9,-4,-1.8,
Cc1ccc(C(=O)N2CCN=C2SCc2ccc([N+](=O)[O-])cc2)cc1,76%,3,-3,4,0.1,
CSc1nnc(C)c(=O)n1COC(=O)c1ccc([N+](=O)[O-])cc1,-1%,10,nt,1,-1.2,
CCOc1ccccc1CN1CCN(Cc2c[nH]c3ccccc23)CC1CCO (stereo unspecified),nt,-3,nt,nt,-0.3,
COc1cc(C(=O)Nc2ccc(NC(C)=O)cc2)ccc1OCc1ccccc1,-4%,7,nt,-5,1.1,
COc1ccc(OC)c(S(=O)(=O)N/N=C(/C)c2ccc3c(c2)OCO3)c1,nt,-1,nt,nt,-1.5,
Cc1nn(C(C)(C)C)c(OC(=O)c2ccc3c(c2)OCO3)c1S(=O)(=O)c1ccccc1,-16%,19,-39,-31,9.5,
O=C(Nc1cccc(-c2nc3ccccc3s2)c1)c1cc(=O)c2ccccc2o1,3%,9,-12,2,-0.3,
COc1cccc(C(=O)OCCN2CCCCC2)c1,2%,-1,-7,2,-3.4,
COc1ccc2c(c1)O[C@@H](c1cccc(C(F)(F)F)c1)[C@H](O)C2=O,nt,-6,-17,5,3.8,
CCOC(=O)C1(Cc2ccccc2)CCN(Cc2ccc(C)s2)CC1,-7%,3,nt,-1,0.2,
COc1ccc(CNC(=O)C2CCN(S(=O)(=O)c3cc(OC)ccc3OC)CC2)cc1,2%,-19,-13,4,nt,
CC(OC(=O)c1ccc2ncsc2c1)C(=O)Nc1ncc(Cl)cc1Cl (stereo unspecified),-5%,6,-22,8,0.6,
Cc1cc2cc(CNC(=O)c3ccc(S(=O)(=O)N4CCOCC4)cc3)ccc2[nH]1,8%,0,nt,1,2.4,Arbovirus anti repeat=0
Cc1c(Cl)cccc1NC(=O)c1ccc(-n2ccnc2)nc1,-5%,9,-50,-4,1.7,
Cc1ccc(C(=O)NCC(=O)O)cc1S(=O)(=O)N1CCCCC1,2%,-8,-48,5,0.8,
CCc1nnc(NC(=O)CSc2nc3c(c(=O)n2-c2ccccc2OC)SCC3)s1,-12%,-4,-47,13,nt,
Cc1oc(-c2ccccc2Cl)nc1CN1CCCC1c1ccc(F)cc1 (stereo unspecified),8%,7,nt,10,4.8,
O=C(NC1CC1)c1nc2c(nnn2Cc2ccccc2Cl)c(=O)[nH]1,-1%,-3,-8,5,-0.3,
COC(=O)CN1C(=O)N(c2ccccc2)C(N(O)C(=O)Nc2ccccc2)C1(C)C (stereo unspecified),nt,0,-27,7,4.9,

# Gathered by group: the compounds so far with a tert-butyl group
SMILES,Mtb growth,Mtb betalactam,YopH inh,Arbovirus anti,RecA intein inh,others
Cc1oc(C(C)(C)C)c(CN2CCCC2)c1C(=O)O,6%,-6,-29,6,-1.2,
Cc1ccnc(NC(=O)CCC(=O)N(CC(=O)NC(C)(C)C)c2ccc(F)c(Cl)c2)c1,-3%,-6,nt,-4,3.7,
Cc1nn(C(C)(C)C)c(OC(=O)c2ccc3c(c2)OCO3)c1S(=O)(=O)c1ccccc1,-16%,19,-39,-31,9.5,

# Continued.
SMILES,Mtb growth,Mtb betalactam,YopH inh,Arbovirus anti,RecA intein inh,others
NS(=O)(=O)c1ccc(N2CCCC2=O)c([N+](=O)[O-])c1,-9%,-5,nt,1,-2.6,
C=CCN1C(=O)c2ccc(C(=O)N(CCC)CC(=O)Nc3ccccc3C)cc2C1=O,nt,-11,nt,nt,4.8,
Cc1nn(-c2ccccc2)c(C)c1C(=O)OCC(=O)NC12CC3CC(CC(C3)C1)C2,3%,94,8,8,11,
CCOC(=O)c1c(C)[nH]c(C(=O)OCc2csc(CC(=O)Nc3ccccc3C)n2)c1C,nt,-6,nt,nt,-2.2,
Cc1nc(N)sc1C(=O)N/N=C/c1ccco1,-12%,-7,3,-6,-2.3,
CC(C)CCNC(=O)C(C)N(C(=O)Cn1nnc(-c2ccc(F)cc2)n1)C1CCCC1 (stereo unspecified),2%,-9,-30,-7,-1.6,
CC1(NC(=O)C2CCCCC2)CCS(=O)(=O)C1 (stereo unspecified),1%,-6,nt,5,-2.2,
COc1ccc(CN2C(=O)NC(=O)/C(=C/c3ccoc3)C2=O)cc1,-4%,-8,nt,nt,2.4,
CCN(CC(=O)NCc1ccc(Cl)cc1)C(=O)c1cnc(Cl)c(Cl)c1,nt,4,nt,nt,-0.1,
Cc1nc(CCNC(=O)c2cccs2)cs1,3%,-4,32,6,0.4,
COc1ccc(C)cc1S(=O)(=O)N(CC(=O)NC1CCCC1)c1ccc(F)cc1,nt,-8,nt,nt,0.0,
C=CCOC(=O)C(C#N)c1nc2ccccc2nc1N1CCN(c2ccccc2OC)CC1 (stereo unspecified),22%,-1,-30,3,14,
COC(CNC(=O)Cn1nc(Cc2ccncc2)c2ccccc2c1=O)OC,nt,7,nt,nt,-1.9,
Cc1ncc(CN2CCC(N3CCC(C(=O)N4CCCC4)CC3)CC2)s1,nt,?,nt,nt,3.1,
O=C(Nc1ccc(N2CCOCC2)c(Cl)c1)c1ncn[nH]1,-9%,-4,-38,-7,2.0,
CCOc1cccc(C(c2c(C)n(C)n(-c3ccccc3)c2=O)c2c(C)n(C)n(-c3ccccc3)c2=O)c1OC,nt,-2,nt,nt,-0.6,
O=C(Nc1cccc2ccccc12)c1ccc(OC(=S)N2CCOCC2)cc1,-4%,-3,1,-6,6.0,
O=C(OC1CCOC1=O)c1ccc(CO)cc1 (stereo unspecified),nt,-4,nt,nt,0.2,
O=C(NCc1ccccn1)C1Nc2ccc(OC(F)(F)F)cc2C2C=CCC12 (stereo unspecified),0%,74,nt,nt,-3.6,
c1ccc2c3nnc4n(c-3nc2c1)CCCS4,-15%,7,6,0,0.5,
CN(N)c1nc(C(F)(F)F)nc2ccccc12,5%,-3,nt,0,-0.1,
CCc1ccccc1NC(=O)CN(C)C(=O)CSc1nn(-c2ccccc2)c(=S)s1,3%,-7,-10,-1,-1.8,
Cc1cc(C)n2nc(C(=O)OCC(=O)Nc3ccc4c(c3)OCO4)nc2n1,5%,-4,-52,-3,-3.3,
COC(=O)c1cc(S(=O)(=O)N2CCCC(C)C2)c[nH]1 (stereo unspecified),nt,1,nt,nt,-0.8,
COc1cccc2c(=O)n(CC(=O)Nc3ccccc3F)ccc12,-1%,-1,-24,5,0.1,
CCc1ccc(C2NC(=O)c3ccccc3O2)cc1 (stereo unspecified),nt,8,nt,nt,0.3,
O=C(Nc1nccs1)C1CCCN1S(=O)(=O)c1ccc(F)cc1 (stereo unspecified),-1%,12,-14,2,0.0,
CCNc1nc(NCC)nc(Oc2ccc(C(=O)OC)cc2)n1,3%,-5,nt,nt,1.7,
CC(C)c1nnc(NC(=O)Cc2ccc(Br)cc2)s1,-2%,-4,-12,7,4.6,
COc1ccc(OCCCC(=O)Nc2cc([N+](=O)[O-])ccc2C)cc1,0%,-4,-21,-3,-1.8,
O=C1/C(=C/c2cccnc2)SC(=S)N1c1ccc(F)cc1,1%,1,-3,6,4.1,
COc1ccc(OC)c(/C=N\NC(=O)CSc2nnc(CCCc3ccc(OC)c(C)c3)o2)c1,8%,53,-8,-13,0.1,
CC1(C)CC(CCC(=O)NC(=S)Nc2ccccc2Cl)C(=O)O1 (stereo unspecified),1%,-8,nt,5,2.1,
O=S(=O)(Nc1ccc(O)c(NS(=O)(=O)c2ccccc2)c1)c1ccccc1,nt,0,nt,nt,-2.0,
NS(=O)(=O)c1ccc(CCNCc2cc(Cl)ccc2OCc2ccccc2)cc1,nt,0,nt,nt,1.2,
COC(=O)c1n[nH]nc1-c1ccccc1,-3%,9,-35,6,-2.7,
CCCCC12CNCC(C)(CNC1)C2=O,-2%,-9,2,-6,-1.6,
O=c1cnc2ccccc2n1Cc1ccc(Br)cc1,nt,-1,nt,nt,1.7,
Cn1ccnc1Sc1nc(Nc2cccc(Cl)c2)nc(N2CCOCC2)n1,-16%,7,1,1,0.2,
COc1cc(OC)c(NC(=S)Nc2cccc(C(C)=O)c2)cc1Cl,3%,-10,-19,6,-1.3,
CCOC(=O)CSCC(=O)Nc1nnc(-c2cccc([N+](=O)[O-])c2)s1,12%,7,-23,8,-2.1,
CCc1nc(SCC(=O)OC)c2c3c(sc2n1)COC(C)(C)C3,nt,-2,nt,nt,-0.9,
CC(=O)c1cccc(CN2CCN(CCC(C)C)C(CCO)C2)c1 (stereo unspecified),-6%,-2,nt,nt,-0.5,
O=C(CCS(=O)(=O)Cc1ccccc1)NCCc1ccccc1,5%,-9,nt,1,-0.3,
CCOC(=O)/C(C#N)=N/Nc1ccccc1C#N,-5%,-7,nt,nt,4.7,
COc1ccc(CCNC(=O)CCC(=O)NC2CCCC(C)C2C)cc1OC (stereo unspecified),nt,3,nt,nt,1.1,
COc1ccc(NC(=O)CSc2nnc(-c3ccncc3)n2CC2CCCO2)c(OC)c1 (stereo unspecified),9%,-4,28,5,nt,
